KCNQ2 enhance: potentiators of rat KCNQ2 potassium channel. Potassium voltage-gated channel subfamily KQT member 2 (Rattus norvegicus), O88943. B-score at 10 µM. AID 2239, 2010. CHO-K1 KCNQ2, FluxOR thallium flux fluorescence; stronger effect = higher value. 310,000 tested, 0.54% active;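 active = fluorescence ratio B-score at least 3 SD of library B-scores, with initial fluorescence B-score within 3 SD, cut at about 5.3 in these data; same plate scores as AID 2156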;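 note: B-score of peak minus minimum over baseline fluorescence ratio after K+ and Tl+ stimulus; positive B-score means potentiation of KCNQ2 with more thallium influx and brighter signal; only the inactives scoring about 0 or higher are listed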
Target sequence (O88943 whole entry, looked up): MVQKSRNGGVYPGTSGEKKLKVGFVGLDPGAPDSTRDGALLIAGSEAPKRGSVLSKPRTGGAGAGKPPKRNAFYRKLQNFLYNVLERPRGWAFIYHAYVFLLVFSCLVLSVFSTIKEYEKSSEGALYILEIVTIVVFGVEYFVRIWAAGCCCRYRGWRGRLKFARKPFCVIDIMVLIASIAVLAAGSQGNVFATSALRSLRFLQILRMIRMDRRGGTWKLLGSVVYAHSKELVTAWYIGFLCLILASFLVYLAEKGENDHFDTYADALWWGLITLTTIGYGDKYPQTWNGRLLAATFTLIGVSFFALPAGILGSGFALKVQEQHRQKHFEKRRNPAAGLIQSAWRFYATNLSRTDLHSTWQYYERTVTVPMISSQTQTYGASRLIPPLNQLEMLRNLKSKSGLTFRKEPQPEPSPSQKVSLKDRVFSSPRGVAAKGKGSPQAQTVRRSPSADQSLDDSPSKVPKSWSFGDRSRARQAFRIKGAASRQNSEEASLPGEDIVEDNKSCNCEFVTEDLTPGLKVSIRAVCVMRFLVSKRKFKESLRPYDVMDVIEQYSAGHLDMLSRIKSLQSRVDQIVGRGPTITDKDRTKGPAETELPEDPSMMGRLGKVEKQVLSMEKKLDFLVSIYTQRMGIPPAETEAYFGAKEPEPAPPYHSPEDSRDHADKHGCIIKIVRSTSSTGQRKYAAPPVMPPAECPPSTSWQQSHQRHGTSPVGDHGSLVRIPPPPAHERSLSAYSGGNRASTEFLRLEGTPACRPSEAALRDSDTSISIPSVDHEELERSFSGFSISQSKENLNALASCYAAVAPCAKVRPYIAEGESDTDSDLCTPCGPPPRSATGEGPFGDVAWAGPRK
KCNQ2 enhance baseline: second read-out of KCNQ2 enhance, no call of its own (marks repeat the call); B-score; compound at 10 µM; measured here: initial fluorescence intensity artifact check;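 brightness before thallium and not channel activity; 0 = typical well and far values either way flag optical interference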
* marks the source's active call; other numbers are inactive results. The list is partial, so the mix of outcomes need not match the whole.

molecule | KCNQ2 enhance | KCNQ2 enhance baseline
CCCS(=O)(=O)c1cn2cccc(N)c2c1S(=O)(=O)CCC | 0.73 | 0.29
Cc1nc2ccc(NC(=O)CSc3nnc(C)s3)cc2[nH]1 | 1.7 | 0.64
Cc1cc(C(C2C(=O)CC(C)(C)CC2=O)C2C(=O)CC(C)(C)CC2=O)cc(C)c1OC(F)F | 0.96 | -0.36
Cn1c(=O)c2[nH]c(N3CCOCC3)nc2n(-c2ccccc2)c1=O | 1.02 | 0.47
CN(C(=O)COC(=O)CSc1ccc([N+](=O)[O-])cc1)C1CCS(=O)(=O)C1 (centres undefined) | 2.64 | 0.01
COc1cc(/C=N/NS(=O)(=O)c2ccc(C)c([N+](=O)[O-])c2)cc([N+](=O)[O-])c1O | 2.44 | -3.57
Cc1cccc(Nc2nc(NCc3ccco3)nc(N)c2[N+](=O)[O-])c1 | 0.22 | 1.15
Cc1cccc(CCNC(=O)Cn2ncc3c([nH]c4ccc(C)cc43)c2=O)c1 | 0.94 | -1.17
CCOc1ccc(-c2cc(C)n3nc(C(N)=O)cc3n2)cc1 | 1.53 | 0.02
Cc1ccc2c(c1)c1c(n2CC(O)CNC(CO)(CO)CO)CCCC1 (centres undefined) | 0.98 | -0.86
O=C(CNS(=O)(=O)c1ccc(F)c(Cl)c1)N1CCCC1 | 0.05 | 1.06
Cc1nn(Cc2cccc(C(N)=O)c2)c(C)c1Br | 0.55 | -0.43
N#Cc1ccc(Oc2ccc(C(F)(F)F)cc2NC(=O)c2ccc(F)cc2)cc1 | 2.7 | -1.49
O=C(NCc1cccnc1)Nc1ccc2c(c1)OCO2 | 0.26 | 0.21
COc1ccc(C(CCN2CCCC(C)C2)c2c(OC)cc(OC)c3c(C)cc(=O)oc23)cc1 (centres undefined) | 2.25 | -1.16
Cc1noc(C)c1COC(=O)c1cccc(N(C)C)c1 | 0.67 | 0.11
CCOCCCNCc1cc(Cl)ccc1OCC | 1.3 | -1.1
Clc1ccccc1CN1CCN(/N=C/c2ccncc2)CC1 | 1.03 | 1.06
COc1ccccc1-n1cc(C(=O)NCC(=O)N2CCN(c3ccccn3)CC2)c2ccccc2c1=O | 0.94 | 0.58
COc1ccc(NCc2cc3cc(OC)ccc3[nH]c2=O)cc1 | 0.79 | -0.19

Retrieved one by one from the entries so far (7):
molecule | KCNQ2 enhance | KCNQ2 enhance baseline
COc1cc(/C=N/NS(=O)(=O)c2ccc(C)c([N+](=O)[O-])c2)cc([N+](=O)[O-])c1O | 2.44 | -3.57
CN(C(=O)COC(=O)CSc1ccc([N+](=O)[O-])cc1)C1CCS(=O)(=O)C1 (centres undefined) | 2.64 | 0.01
O=C(NCc1cccnc1)Nc1ccc2c(c1)OCO2 | 0.26 | 0.21
CCCS(=O)(=O)c1cn2cccc(N)c2c1S(=O)(=O)CCC | 0.73 | 0.29
Cc1nc2ccc(NC(=O)CSc3nnc(C)s3)cc2[nH]1 | 1.7 | 0.64
Cc1cc(C(C2C(=O)CC(C)(C)CC2=O)C2C(=O)CC(C)(C)CC2=O)cc(C)c1OC(F)F | 0.96 | -0.36
N#Cc1ccc(Oc2ccc(C(F)(F)F)cc2NC(=O)c2ccc(F)cc2)cc1 | 2.7 | -1.49

Next section
molecule | KCNQ2 enhance | KCNQ2 enhance baseline
CN1CCCN(C(=O)CC2(CC(=O)O)CCCCC2)CC1 | 0.08 | -0.21
CC(=O)NC12CC3CC(C)(C1)CC(NC(C)=O)(C3)C2 | 1.39 | -0.54
COc1cc(/C=N\Nc2nc(-c3ccc(C)cc3)c(NC(C)=O)s2)ccc1O | 0.62 | -0.1
N=C(N)SCc1ncccc1O | 1.42 | -2.94
Nc1nc(CN2CCCCC2)cs1 | 1.39 | -0.94
O=C(CN1CCOCC1)Nc1ccc(Oc2ccc(NC(=O)CN3CCOCC3)cc2)cc1 | 0.88 | 0.79
COc1ccccc1OCC(=O)Nc1ccc(S(=O)(=O)N2CCN(C)CC2)cc1 | 1.21 | 0.85
COc1ccc(C(=O)n2nc(-c3ccccc3)nc2SC)cc1 | 0.39 | 0.3
COc1ccc(NS(=O)(=O)c2ccc(NC(=O)c3ccccc3)cc2)nn1 | 0.18 | -0.42
COc1ccc(C(=O)N2CCN(c3ccc([N+](=O)[O-])c(-n4nc(C)cc4C)c3)CC2)cc1 | 0.83 | -0.99
Cc1ccc(S(=O)(=O)Nc2ccc(C(=O)Nc3ccncc3)cc2)cc1 | 1.62 | 0.12
CS(=O)(=O)N1CCc2cc(-c3csc(NC(=O)C(c4ccccc4)c4ccccc4)n3)ccc21 | 0.88 | -1.09
O=C(/C=C/c1ccc(Cl)cc1Cl)c1ccc[nH]1 | 0.9 | -1.14
COc1ccc(S(=O)(=O)N(C)CC(=O)N2CCOCC2)cc1 | 0.12 | -2
CN(C)c1ccc(C2(O)C(=O)c3ccccc3C2=O)cc1 | 1.6 | -1.22
COc1cc(C(=S)N2CCCC2)cc(OC)c1OC | 1.2 | -3.76
Nc1nnc(SC2CCCC2)s1 | 1.09 | 2.97
Cc1c(CC(=O)N2CCC(C(=O)O)CC2)c(=O)oc2cc3c(cc12)CCC1(CCCCC1)O3 | 1.25 | 0.63
CCOC(=O)c1cnc(-n2nc(C)cc2C)nc1NC | 0.03 | -1.08
O=C(O)CCCCCNC(=O)CSc1nnc(-c2ccco2)n1-c1ccccc1 | 1.64 | 1.6
Cc1ccc(S(=O)(=O)Nc2cccc(C(=O)N3CCCC3)c2)cc1F | 0.48 | 1.56
Cc1cc(C)nc(NS(=O)(=O)c2ccc(NC(=O)Nc3ccccc3)cc2)n1 | 1.88 | -0.03
COc1ccc2[nH]c(=O)c(CN(c3ccc(C)c(C)c3)S(C)(=O)=O)cc2c1 | 1.3 | -0.07
CCCCCC(=O)Nc1ccc(C(=O)COC(=O)c2ccccn2)cc1 | 0.06 | 0.81
CCOCc1nnc(NC(=O)CSc2ccc(C)cc2)s1 | 0.65 | 1.47
CC(C)NC(=O)COC(=O)c1ccc(O)cc1 | 0.01 | 1.08
O=C(NCc1cccnc1)Nc1ccccc1F | 0.4 | 0.22
CS(=O)(=O)N(Cc1nc2sc3c(c2c(=O)[nH]1)CCCC3)C1CCCCC1 | 0.66 | -0.62
O=C(CN1CCCC1)NC(c1ccccc1)c1ccccc1 | 0.03 | -0.05
Cc1ccc(Sc2c([N+](=O)[O-])c(C)nn2C)cc1 | 1.17 | 0.1
O=C(CSc1nc(-c2ccccc2)nc2ccc(F)cc12)Nc1cccc(C(=O)O)c1 | 2.07 | 0.12
Cc1ccccc1NS(=O)(=O)c1ccc(C)c(NS(C)(=O)=O)c1C | 0.01 | 0.38
O=C(Cc1c[nH]c2ccccc12)NCc1cccs1 | 0.71 | -0.14
O=[N+]([O-])c1ccc(/C=N/Nc2ncc(Br)cn2)cc1 | 0.97 | -1.83
C=CCSC1=C(C#N)C(c2cc(Br)c(O)c(OC)c2)CC(=O)N1 (centres undefined) | 0.84 | -0.02
Cc1cc(C)nc(N2CCC(C(=O)NCc3ccccc3F)CC2)n1 | 0.66 | -0.02
O=C(NCCc1ccccc1)c1cccc2c1C(=O)N(C1CCCCC1)C2 | 0.84 | -1.8
CC1(C)C(=O)Nc2ccccc2N1C(=O)COC(=O)c1cc(S(=O)(=O)N2CCOCC2)ccc1F | 0.65 | -0.29
Cn1nnc2cc(NC(=O)NCc3ccc4c(c3)OCO4)ccc21 | 0.18 | 0.1
O=S(=O)(NN1CCOCC1)c1ccc(Br)cc1 | 1.17 | -0.93
CC(C)C(NS(=O)(=O)c1ccc2c(c1)OCCO2)C(=O)NCCc1ccccn1 (centres undefined) | 0.69 | 0.05
COC(=O)c1ccc2c(=O)n(CCCCCC(=O)O)c(=O)[nH]c2c1 | 1.85 | 0.45
COc1ccc(C(=O)Nc2nc3cc4c(cc3s2)OCCO4)c(OC)c1 | 0.99 | 0.65
CCOC(=O)c1cc2c(=O)[nH]c(C(Cl)(Cl)Cl)nc2o1 | 0.45 | 0.24
COc1ccc([N+](=O)[O-])cc1CSc1ccccn1 | 0.25 | 1.93
CC1(C(=O)OCC(=O)NCCNC(=O)COC(=O)C2(C)CC2(Cl)Cl)CC1(Cl)Cl (centres undefined) | 0.24 | -0.84
CCOC(=O)c1nc(N)sc1C(=O)OCC | 0.01 | -1.33
C=CCN1CC2CC3(COc4cc(C)cc(C)c4)C=CC2(O3)C1=O (centres undefined) | 1.21 | 0.01
S=C(c1nc2ccccc2[nH]1)N1CCOCC1 | 3.51 | 1.87
COc1cc(Cl)cc(/C=C/c2ccc3ccccc3n2)c1OC(C)=O | 0.02 | 0.75
CC(/C=C/c1ccc2c(c1)OCO2)=N\NC(=O)C(O)c1ccccc1 (centres undefined) | 1.68 | -0.71
CSc1nc(O)cc(=O)n1-c1ccc(F)cc1 | 0.67 | -0.25
Cc1nnsc1Sc1ccccn1 | 0.6 | 1.42
O=C(Nc1cccc(C(F)(F)F)c1)N(Cc1ccc(Cl)cc1)CC(O)C(F)(F)F (centres undefined) | 3.58 | 0.74
COc1ccccc1N1CCN(Cc2cc(OC)c3c(c2)OCO3)CC1 | 1.65 | 2.32
Cc1cc(=O)oc(C)c1C(=O)NCCNC(=O)c1c(C)cc(=O)oc1C | 1.8 | 0.23
O=C(Nc1ccc(OCC(=O)N2CCOCC2)cc1)c1cccc(Cl)c1 | 1.44 | -0.32
CC1=C(C(=O)Nc2ccccn2)C(c2ccccc2)n2ncnc2N1 (centres undefined) | 0.17 | 0.73
COC(=O)CSc1ncnc2c1cnn2-c1ccc(C)cc1C | 0.08 | 0.67
Cc1cc(C)cc(NC(=O)NCC2CCN(Cc3cc(C)ccc3C)CC2)c1 | 2.23 | 0.93

Additional compounds follow.
Below each SMILES: KCNQ2 enhance	KCNQ2 enhance baseline
> COCC(COS(N)(=O)=O)C(C)C (centres undefined)
  0.03	1.95
> COc1cc(C(=O)COC(=O)Cc2cnc3sccn23)cc(OC)c1OC
  0.86	-0.13
> O=S1(=O)C=C(Oc2ccc(F)cc2)c2ccccc21
  0.45	0.63
> O=C(NCc1ccc2c(c1)OCO2)c1cc(Cl)ccc1Cl
  0.91	1.21
> O=C(O)c1ccc(/C=N/N2CCN(C3c4ccccc4-c4ccccc43)CC2)cc1
  1.04	0.87
> O=c1c2ccccc2nc(-c2ccoc2)n1CCc1ccccc1
  0.57	0
> Cc1ccccc1NC(=O)NCCCN1CCCC1
  0.51	1.35
> COc1ccccc1NS(=O)(=O)c1cc(NC(=O)c2cc3ccccc3oc2=O)ccc1C
  0.35	1.7
> Cc1cc(C)n2cnnc2n1
  1.24	-0.92
> O=C(NC(=S)Nc1ccc(NC(=O)c2ccccc2)cc1)c1ccc(F)cc1
  0.12	0.83
> O=C(c1ccccc1)c1nnc(-c2ccncc2)o1
  0.59	-1.7
> O=C1COc2ccc(C(=O)COC(=O)C3CC(O)CN3S(=O)(=O)c3ccc(Cl)cc3)cc2N1 (centres undefined)
  0.64	-0.66
> COC(=O)c1ccc(CNC(=O)c2cc(COc3cncc(Cl)c3)on2)cc1
  0.85	-1.96
> O=C(NNC(=O)C1C2CCC(C2)C1C(=O)O)c1ccc(Br)o1 (centres undefined)
  0.06	-0.1
> COC(=O)C(CC(=O)c1ccc(Br)cc1)n1nc(C)cc1C (centres undefined)
  0.49	-1.68
> COc1ccc(CCNC(=O)CSc2nc(N)c3c(C)c(C)oc3n2)cc1OC
  1.32	0.03
> CN(NS(C)(=O)=O)c1ncc(C(F)(F)F)cc1Cl
  0.16	-0.42
> Cc1ccc(C(=O)CSc2nnc(-c3ccco3)n2C)cc1
  0.83	-0.51
> COc1ccc2[nH]c(=O)c(CN(C(=O)c3ccncc3)C(C)(C)C)cc2c1
  0.78	-0.06
> O=C(COc1ccc(Br)cc1Br)NC1CCS(=O)(=O)C1 (centres undefined)
  1.39	-1.51
> Cc1cc(C)n2nc(-c3sccc3-n3c(C)ccc3C)cc2n1
  0.12	1.04
> Cc1ccc(NC(=O)CN(C)C(=O)COC(=O)CCS(=O)(=O)c2ccc(C)cc2)cc1
  1.32	-0.66
> O=C(CC1CS(=O)(=O)CC1CC(=O)Nc1ccc2c(c1)OCCO2)Nc1ccc2c(c1)OCCO2 (centres undefined)
  0.02	0.26
> O=C(c1cc2ccccc2oc1=O)N1CCCCCCC1
  1.57	1.36
> CC1(C)OC(=O)C(=NNc2ccc(C(=O)O)cc2)C(=O)O1
  1.32	-1.74
> Cc1ccc(NCC(=O)Nc2cccc(S(=O)(=O)N(C)C)c2)c(Cl)c1
  0.69	-2.43
> O=c1ccc(S(=O)(=O)N2CCC(Cc3ccccc3)CC2)c[nH]1
  0.27	0.86
> Cc1ccc(C)c(SCC(=O)N(C)CC(=O)Nc2ccc(N3CCOCC3)cc2)c1
  1.69	0.47
> Cc1cc(C(=O)N/N=C/C=C/c2ccccc2[N+](=O)[O-])c(C)o1
  0.29	-0.05
> CN1CCN(C(=O)c2cccc(COc3cc(Cl)ccc3Cl)c2)CC1
  0.97	-0.96
> CCOc1ccc(NC(=O)NNC(=O)C(C)Oc2ccccc2OC)cc1 (centres undefined)
  0.62	-0.48
> O=C(CCl)Nc1ccc(Oc2cnc3ccccc3n2)cc1
  0.03	-0.02
> CN(Cc1cccs1)C(=O)COc1cccc(-n2cnnn2)c1
  1.09	-2.04
> CN(C)c1ccc(O)c2c1CC1CC3[C@@H](N(C)C)C(=O)C(C(N)=O)=C(O)[C@]3(O)C(=O)C1=C2O (some centres undefined)
  0.48	-0.34
